ugtP null kill = compounds lethal to S. aureus RN4220 ugtP deletion mutant; actives 0.54% (n = 330,000); growth inhibition, % (test concentration not listed); OD600 growth, 16 h; some inactives read as strong as hits; AID 1259309;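 active = z-score under -3 and OD600 up to 0.15 on both plates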;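 note: plate controls were untreated wells for no effect and antibiotic for full effect; wells of about 80 µL received 100 nL stock; the first replicate is given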
Sa RN4220 lethal = S. aureus RN4220 growth inhibition. actives 0.33% (n = 330,000). AID 1259311. inhibition, % (test concentration not listed). OD600, 16 h;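 active = z-score of -3 or lower and OD600 up to 0.18 on both plates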;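 note: plate controls were untreated cells for no effect and reference antibiotic for full effect; stock transfer was 100 nL into about 80 µL; one replicate is shown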
Bead autofluor = flagged as autofluorescent in microsphere protease counterscreen | fluorescence intensity (concentration not given with the values) | AID 624483 | actives 3.1% (n = 360,000) | compound autofluorescence counterscreen, microsphere flow cytometry; active compounds read high;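 active = at least 3 SD above the mean of all compounds, about 16000 in these data; inconclusive = too few beads counted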;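 note: 100 nL of 1 mM stock went into each well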
BJeLR viability = kills HRASV12-expressing BJeLR cells; inhibition, % (no concentration beside the values); actives 0.17% (n = 300,000); BJeLR (HRASV12) viability, CellTiter-Glo ATP luminescence, 48 h; reference of the scale not given here;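 active = replicate mean above 50%; inconclusive = above 50% but judged a plate artefact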;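 note: 50 nL library stock added to about 25 µL; numbers are from one replicate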
Mtb hypoxia rep = inhibitors of hypoxia-regulated fluorescent reporter in Mycobacterium tuberculosis. M. tuberculosis hypoxia-regulated fluorescent reporter, fluorescence. fluorescence inhibition, % (no concentration beside the values). actives 0.1% (n = 300,000);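 active = 35 to 45% if threefold the growth effect, above 45% if 1.5-fold the growth effect; inactive = the rest, general growth blockers included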;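 note: wells of about 50 µL received 100 nL stock; 0% = vehicle wells and 100% = reference inhibitor wells; whole bacteria with a GFP reporter of the hypoxia response; strong numbers were not always called active; many hits fall short of the cut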
PrP UTR inh = suppresses PrP 5' UTR mRNA reporter expression | cell-based PrP 5' UTR mRNA reporter, plate reader | inhibition, % (concentration not given with the values) | actives 0.35% (n = 340,000) | AID 488862;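 active = every replicate at 50% or more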;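 note: 0 = median of the neutral control wells; tested in H4 reporter cells; numbers are from one replicate; inactives centre near -14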
Mtb hypoxia rep growth = also measured in Mtb hypoxia rep; calls as there; growth inhibition, %; measured here: M. tuberculosis growth (absorbance);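 0% = vehicle and 100% = reference antibiotic; read after six days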
* = called active by the depositor; ? = inconclusive; / = no result given.

cpd	Compound	ugtP null kill	Sa RN4220 lethal	Bead autofluor	BJeLR viability
1	CC(CCc1ccccc1)NC(=O)c1cccc([N+](=O)[O-])c1 (stereo unspecified)	-1	0.7	2169	-4
2	Cc1ccc(OCCSc2ncnc3sc(C)c(C)c23)cc1C	/	/	4381	-1
3	NC(=O)c1ccc(NC(=O)CCCNC(=O)c2ccc(Cl)cc2)cc1	2	3.0	3689	-3
4	Cc1ccc2[nH]c(=O)c(COC(=O)c3cccs3)cc2c1	-13	4.4	2520	3
5	CN1CC=C2C(C#N)=C(N)C(C#N)(C#N)C(Cc3ccccc3)C2C1 (stereo unspecified)	11	4.1	3323	-17
6	O=C(CSc1ccc(Cl)cc1)Nc1nnc(-c2cccc([N+](=O)[O-])c2)s1	-21	-21	5444	16
7	CCOc1ccccc1NC(=O)NS(=O)(=O)c1ccc(C)cc1	-1	5.2	8497	2
8	COc1ccccc1CNC(=O)COc1ccc(C)nc1[N+](=O)[O-]	2	1.9	4213	5
9	O=S(=O)(NCc1ccc(Cl)cc1)c1cccc2cccnc12	2	7.4	5425	6
10	N#CC1(NC(=O)CSc2n[nH]c(-c3ccccc3)n2)CCCCC1	-1	1.4	?	1

cpd	Mtb hypoxia rep	Mtb hypoxia rep growth	PrP UTR inh
1	2	15	-18
2	/	/	-16
3	-3	5	-7
4	8	4	12
5	3	2	-16
6	7	13	9
7	14	0	-14
8	2	6	-10
9	15	6	-11
10	13	0	-6

Remaining list, next part:
cpd	Compound	ugtP null kill	Sa RN4220 lethal	Bead autofluor	BJeLR viability
11	O=S(=O)(Nc1ccc2c3c(cccc13)CC2)c1ccc(F)cc1	-21	18	5080	-11
12	O=C(c1ccc(F)cc1)N1CCCC(C(=O)N2CCN(c3ccccc3)CC2)C1 (stereo unspecified)	4	0.6	3835	-1
13	COc1ccc(-n2c(=O)[nH]c3ccccc3c2=O)c(OC)c1	-5	-0.9	9533	1
14	CSc1ccc(/C=C(/NC(=O)c2ccc(C)cc2)C(=O)Nc2cccc(C)c2)cc1	/	/	6806	-3
15	CCOC(=O)C1(CC2CCCCO2)CCN(S(=O)(=O)c2c(C)nn(C)c2C)CC1 (stereo unspecified)	3	2.5	4244	0
16	CCOC(=O)C1(CC2CCCCO2)CCN(Cc2nccn2-c2cccc(C)c2)CC1 (stereo unspecified)	15	1.9	2143	-8
17	CC(C)n1c2ccccc2c2nnc(SCC(=O)Nc3ccccc3C(=O)O)nc21	-2	0.9	4880	-10
18	O=C(c1ccc(NS(=O)(=O)c2ccc(Cl)cc2)cc1)N1CCOCC1	7	-1.5	3410	8
19	Cc1ccc(C(=O)CSc2nnc(COc3ccccc3)o2)cc1	4	1.9	4397	-4
20	Cc1nnc(NC(=O)C2CC(=O)N(c3ccccc3)C2)s1 (stereo unspecified)	1	1.8	3753	3

cpd	Mtb hypoxia rep	Mtb hypoxia rep growth	PrP UTR inh
11	/	/	-15
12	2	4	-26
13	-6	9	-24
14	/	/	-37
15	6	8	-14
16	-5	2	-5
17	4	18	-19
18	4	4	-22
19	2	2	-11
20	1	8	-16

Additional structures
cpd	Compound	ugtP null kill	Sa RN4220 lethal	Bead autofluor	BJeLR viability
21	CCOC(=O)c1[nH]c2ccc(OC)cc2c1NC(=O)CN1CCSCC1	-3	2.3	4322	/
22	CC(NC(=O)c1cccc2ccccc12)c1ccc2c(c1)CCCC2 (stereo unspecified)	82	9.9	2075	4
23	NC(=O)COC(=O)c1sc2ccccc2c1Cl	0	1.2	5051	3
24	CCOC(=O)C1CCCN(C(=O)c2ccc3c(c2)N(Cc2ccccc2)C(=O)c2ccccc2S3=O)C1 (stereo unspecified)	-7	5.0	2567	-1
25	Cc1ccc(NC(=S)NNC(=S)Nc2cccc(C(F)(F)F)c2)cc1	/	/	?	-2
26	O=C(CCc1ccccc1)n1nc(-c2ccco2)nc1SCc1ccccc1	8	-3.7	5922	/
27	Cc1cc(/C=C2/SC(=O)N(CC(=O)N3CCCC3)C2=O)ccc1N1CCOCC1	4	0.7	3195	-5
28	COc1ccc(C(=O)Nc2ccccc2C(=O)NN=Cc2ccncc2)cc1OC	8	0.7	/	/
29	COc1cccc(-c2csc(N3CCN(C(=S)Nc4ccccc4Cl)CC3)n2)c1	-13	35	9158	11
30	CCN(CC(=O)Nc1c(F)cccc1F)C(=O)c1ccc(Cl)c(S(=O)(=O)N2CCCCC2)c1	1	1.5	5667	-19

cpd	Mtb hypoxia rep	Mtb hypoxia rep growth	PrP UTR inh
21	/	/	2
22	11	8	-16
23	5	18	-18
24	5	4	-3
25	/	/	-69
26	/	/	-21
27	-5	-5	-14
28	3	2	/
29	7	-5	-20
30	6	8	-13

Profiles from above:
Results for CC(NC(=O)c1cccc2ccccc12)c1ccc2c(c1)CCCC2 (stereo unspecified) → ugtP null kill: 82; Sa RN4220 lethal: 9.9; Bead autofluor: 2075; BJeLR viability: 4; Mtb hypoxia rep: 11; Mtb hypoxia rep growth: 8; PrP UTR inh: -16
Results for O=C(CCc1ccccc1)n1nc(-c2ccco2)nc1SCc1ccccc1 → ugtP null kill: 8; Sa RN4220 lethal: -3.7; Bead autofluor: 5922; BJeLR viability: /; Mtb hypoxia rep: /; Mtb hypoxia rep growth: /; PrP UTR inh: -21
Results for Cc1ccc(NC(=S)NNC(=S)Nc2cccc(C(F)(F)F)c2)cc1 → ugtP null kill: /; Sa RN4220 lethal: /; Bead autofluor: ?; BJeLR viability: -2; Mtb hypoxia rep: /; Mtb hypoxia rep growth: /; PrP UTR inh: -69

Continued:
cpd	Compound	ugtP null kill	Sa RN4220 lethal	Bead autofluor	BJeLR viability
31	C=C(C)CNC(=S)NN=Cc1ccccc1OCC(=O)O	8	18	/	/
32	COc1ccccc1CNC(=O)[C@H](C)N1C(=O)N2CCc3c([nH]c4ccccc34)[C@@]2(C)C1=O	11	0.6	5184	-8
33	O=C(COC(=O)c1cc[n+]([O-])cc1)Nc1ccc(Cl)cc1[N+](=O)[O-]	-1	6.5	3710	9
34	CCOC(=O)c1ccc(NC(=O)CSc2nccn2C)cc1	4	-0.6	2737	2
35	COC(=O)CS(=O)(=O)c1nnc([C@H](Cc2ccccc2)NC(=O)OC(C)(C)C)o1	-2	-2.1	2648	12
36	COc1ccc(C(CC(=O)NCc2ccccc2)C(C)C)cc1 (stereo unspecified)	4	3.1	4123	-8
37	CCOc1ccc(NC(=O)CC2C(=O)N(C)C(=S)N2Cc2ccc3c(c2)OCO3)cc1 (stereo unspecified)	-3	4.5	?	-3
38	OC(CN1CCOCC1)CN(c1ccccc1)c1ccccc1 (stereo unspecified)	10	2.0	5487	-15
39	CCOC(=O)N1CCC(NC(=O)c2cc(COc3ccc(F)cc3Cl)on2)CC1	-4	-1.6	?	-8
40	CC1CC2(O)c3nonc3CCC2N1O (stereo unspecified)	-5	7.2	11089	6

cpd	Mtb hypoxia rep	Mtb hypoxia rep growth	PrP UTR inh
31	8	4	/
32	/	/	-63
33	-6	2	-13
34	/	/	-24
35	/	/	16
36	8	7	-10
37	5	8	-12
38	4	-1	-14
39	-2	8	-8
40	2	11	-27

As entered above:
#39 @ Mtb hypoxia rep = -2
#32 @ Bead autofluor = 5184
#33 @ Bead autofluor = 3710
#31 @ Mtb hypoxia rep growth = 4
#34 @ PrP UTR inh = -24
#38 @ ugtP null kill = 10

Further structures follow.
cpd	Compound	ugtP null kill	Sa RN4220 lethal	Bead autofluor	BJeLR viability
41	O=C1C(=O)c2c(C(=O)c3ccccc3)coc2-c2ccccc21	86*	94*	7883	-10
42	OC1CCCN(Cc2ccc3c(c2)Cc2ccccc2-3)C1 (stereo unspecified)	-4	0.7	11083	2
43	COc1cc(C=NNc2nc(-c3ccc(C)cc3)c(NC(C)=O)s2)ccc1O	-6	3.2	/	/
44	CCCCCCCCC(=O)NNC(=O)c1c(O)c2ccccc2n(CCC)c1=O	98*	98*	4468	-4
45	CN(C)CCCNC(=S)N1CCn2c(nc3ccccc32)C1	-3	2.6	6952	12
46	CCOc1ccc(S(=O)(=O)N2CCCCC2)c2ccccc12	7	9.1	3505	6
47	CC(CCN1CCN=C1Nc1ccccc1)c1ccccc1 (stereo unspecified)	3	3.4	2770	8
48	COCCC(=O)N1CCC(Oc2ccc(C(=O)NCCc3ccccn3)cc2)CC1	/	/	5806	13
49	Cc1ccc(-c2csc3nc[nH]c(=S)c23)cc1C	-4	1.2	2105	2
50	CC1CN(S(=O)(=O)c2cccc(C(F)(F)F)c2)CN1C(=O)N1CCOCC1 (stereo unspecified)	0	2.7	3098	-1

cpd	Mtb hypoxia rep	Mtb hypoxia rep growth	PrP UTR inh
41	4	2	-72
42	12	7	-26
43	/	/	/
44	0	5	-12
45	1	-1	-22
46	8	5	-4
47	6	-5	-9
48	/	/	-20
49	0	7	-10
50	5	-3	-25

(list continues)
cpd	Compound	ugtP null kill	Sa RN4220 lethal	Bead autofluor	BJeLR viability
51	CON=CC1CCN(c2ncc(C(F)(F)F)cc2Cl)C1=O (stereo unspecified)	8	1.4	/	/
52	O=C(C1CCN(S(=O)(=O)c2cccnc2)CC1)N1CCN(c2ccc(Cl)cc2)CC1	1	0.4	5235	2
53	CC(=O)c1c(C)[nH]c(C(=O)OCC(=O)NCC(C)C)c1C	5	2.0	4527	8
54	COc1ccccc1NC(=O)c1cc(OC)c(OC)cc1[N+](=O)[O-]	4	5.6	4440	2
55	CC(=O)n1cc([C@H]2C=C(C(=O)Nc3ccccc3)O[C@@H](OCCCCO)C2)c2ccccc21	/	/	4300	1
56	COCCN(C)Cc1nc(C(c2ccccc2)c2ccccc2)no1	4	0.2	3731	6
57	O=C(CN1C(=O)NC2(CCOc3ccccc32)C1=O)Nc1ccc2c(c1)OCCO2 (stereo unspecified)	0	-1.4	4021	-6
58	Cc1cc(C=C2C(=O)c3ccccc3C2=O)c(C)n1-c1ccc(C(=O)O)cc1	14	19	4364	-15
59	COc1cc(/C=N\NC(=O)Cn2nnc3ccccc32)cc(OC)c1OC	/	/	2827	3
60	Cc1nn(-c2ccccc2)c(C)c1NC(=O)c1ccc(S(=O)(=O)N2CCCC2)cc1	0	6.9	9519	1

cpd	Mtb hypoxia rep	Mtb hypoxia rep growth	PrP UTR inh
51	14	6	/
52	3	-1	-3
53	11	2	-9
54	11	4	-36
55	/	/	-14
56	12	9	-25
57	/	/	-8
58	6	11	-29
59	/	/	-22
60	4	16	-3

The results go on.
cpd	Compound	ugtP null kill	Sa RN4220 lethal	Bead autofluor	BJeLR viability
61	OC1(c2ccc(F)cc2)CCN(Cc2cccnc2)CC1	12	-2.4	3953	11
62	O=C1CC(NCc2ccccc2)C(=O)N1c1ccc(F)cc1 (stereo unspecified)	9	4.2	4038	/
63	Cc1noc(C)c1S(=O)(=O)Nc1ccc(C(=O)N2CCCCC2)cc1	10	1.3	12704	-2
64	COc1ccc(C(=O)NCc2ccon2)cc1OC1CCN(C(C)C)CC1	3	2.0	5906	-5
65	Cc1ccc(S(=O)(=O)NC(C(=O)Oc2ccc3c(C)c(Cl)c(=O)oc3c2)c2ccccc2)cc1 (stereo unspecified)	3	5.8	2246	3
66	N#C/C(=C\c1c[nH]c2ccccc12)C(=O)NC1CC1	/	/	3677	-20
67	CCc1ccc(OCc2nnc(SCC(=O)NCc3ccco3)o2)cc1	-3	4.7	4571	-8
68	Cc1ccc(-c2c(CC(=O)O)c(C)nc3sc4c(c23)CCCC4)cc1	-6	9.4	4023	0
69	CCC1=C(OC(=O)N(CC)CC)N2C(=O)OC(=NCC(=O)OC)[C@]2(C)C2C1=CCC1C(=O)NC(=O)C12 (stereo partly specified)	-4	-0.9	/	/
70	COCCNC(=O)CN1CCC(NC(=O)Nc2ccc(C(F)(F)F)cc2)CC1	-2	0.1	23251*	-1
71	CCN1CCN(C(=O)c2nn(-c3ccc(OC)cc3)c(=O)c3c2c2ccccc2n3C)CC1	4	1.2	2114	2
72	Cc1[nH]c2c([N+](=O)[O-])cccc2c1C	0	4.6	5605	-5
73	CC(C)NC(=O)C(Sc1ccccc1)c1ccccc1 (stereo unspecified)	9	5.7	3178	12

cpd	Mtb hypoxia rep	Mtb hypoxia rep growth	PrP UTR inh
61	9	12	-25
62	10	3	-14
63	14	8	-14
64	6	3	-16
65	5	3	-29
66	/	/	-49
67	5	12	0
68	1	1	-17
69	2	0	/
70	10	14	-14
71	8	6	-19
72	-3	-2	-18
73	6	1	4

High-throughput results: PubChem, several laboratories

Rows are unselected (roughly 4.1% active in at least one column).
